# Screening results from PubChem.
# Autofluor counter: compound fluorescence in toxin protease inhibitor counterscreen. compound autofluorescence counterscreen, microsphere flow cytometry; active compounds read high. 360,000 compounds, 3.1% hits. fluorescence intensity (test concentration not listed). AID 624483;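 active = at least 3 SD above the mean of all compounds, about 16000 in these data; inconclusive = too few beads counted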;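 also: 100 nL of 1 mM stock went into each well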
# Sa ugtP lethal: growth inhibition of S. aureus ugtP deletion strain; 330,000 compounds, 0.54% hits; AID 1259309; growth inhibition, % (no concentration beside the values); S. aureus RN4220 ugtP deletion, OD600 growth, 16 h; some inactives read as strong as hits;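 active = z-score under -3 and OD600 up to 0.15 on both plates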;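 also: plate controls were untreated wells for no effect and antibiotic for full effect; wells of about 80 µL received 100 nL stock; the first replicate is given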
# BJeLR lethal: kills HRASV12-expressing BJeLR cells; BJeLR (HRASV12) viability, CellTiter-Glo ATP luminescence, 48 h; reference of the scale not given here; inhibition, % (test concentration not listed); 300,000 compounds, 0.17% hits; AID 1554;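 active = replicate mean above 50%; inconclusive = above 50% but judged a plate artefact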;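 also: 50 nL library stock added to about 25 µL; numbers are from one replicate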
# PrP 5UTR inh: inhibition of PrP 5' UTR reporter expression; cell-based PrP 5' UTR mRNA reporter, plate reader; inhibition, % (no concentration beside the values); 340,000 compounds, 0.35% hits; AID 488862;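 active = every replicate at 50% or more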;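 also: 0 = median of the neutral control wells; tested in H4 reporter cells; numbers are from one replicate; inactives centre near -14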
# Mtb hypoxia inh: inhibitors of hypoxia-regulated fluorescent reporter in Mycobacterium tuberculosis. 300,000 compounds, 0.1% hits. M. tuberculosis hypoxia-regulated fluorescent reporter, fluorescence. fluorescence inhibition, % (no concentration beside the values);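 active = 35 to 45% if threefold the growth effect, above 45% if 1.5-fold the growth effect; inactive = the rest, general growth blockers included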;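 also: wells of about 50 µL received 100 nL stock; 0% = vehicle wells and 100% = reference inhibitor wells; whole bacteria with a GFP reporter of the hypoxia response; strong numbers were not always called active; many hits fall short of the cut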
# RN4220 kill: S. aureus RN4220 growth inhibition; OD600, 16 h; inhibition, % (test concentration not listed); 330,000 compounds, 0.33% hits; AID 1259311;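 active = z-score of -3 or lower and OD600 up to 0.18 on both plates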;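 also: plate controls were untreated cells for no effect and reference antibiotic for full effect; stock transfer was 100 nL into about 80 µL; one replicate is shown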
# Mtb hypoxia inh growth: also measured in Mtb hypoxia inh; calls as there; growth inhibition, %; measured here: M. tuberculosis growth (absorbance);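 0% = vehicle and 100% = reference antibiotic; read after six days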
# Starred values were filed as active, the others as inactive; ? = inconclusive; / = no result given; & = joins results of further samples.
item	SMILES	Autofluor counter	Sa ugtP lethal	BJeLR lethal	PrP 5UTR inh
1	CCOc1ccc(NC(=O)c2ccc3[nH]c(=O)c(=O)[nH]c3c2)cc1	5759	2	6	0
2	COc1ccc(C=NNc2nnc(Cc3ccccc3)c(=O)[nH]2)cc1	/	9	/	/
3	Cc1cccc(-c2noc(CCCC(=O)Nc3cccnc3)n2)c1	?	5	0	2
4	C=C(C)CSC1=C(C#N)C(c2ccccc2)CC(=O)N1 (stereo not drawn)	6874	1	-8	-2
5	NC(=O)COc1ccc(C=NNC(=O)c2ccc(-c3ccccc3)cc2)cc1	/	-3	/	/
6	COC(=O)c1cc(NC(=O)CC2C(=O)NCCN2C(=O)c2ccc(F)cc2)cc(C(=O)OC)c1 (stereo not drawn)	4164	-2	1	-19
7	C/C(N)=C(/C#N)C(=O)CSc1ncnc2ccccc12	4609	-5	-11	-8
8	S=C(NCc1ccc(Cl)cc1Cl)NC1CCCCC1	2029	32	-2	-14
9	CC(NC(=S)Nc1ccccc1)C1COc2ccccc2O1 (stereo not drawn)	2477	-5	-17	-20
10	COc1cc(C(=S)N2CCOCC2)ccc1OS(=O)(=O)c1ccc(NC(C)=O)cc1	2613	6	9	-27
11	O=C(O)c1cccc(N=NN2CCCCCC2)c1	6959	5	2	-96
12	COc1ccc(/C=C2/C(=O)OCc3cc(OC)c(OC)cc32)c(OC)c1	2260	-3	-4	-9

item	Mtb hypoxia inh	Mtb hypoxia inh growth	RN4220 kill
1	2	8	-0.8
2	-15	-5	4.6
3	4	9	0.4
4	5	10	2.5
5	2	-8	-0.5
6	2	7	1.3
7	0	4	4.0
8	0	1	9.6
9	-2	4	-0.8
10	10	1	12
11	4	5	4.8
12	9	7	7.5

# (list continues)
item	SMILES	Autofluor counter	Sa ugtP lethal	BJeLR lethal	PrP 5UTR inh
13	Cc1ccc(S(=O)(=O)NCC(=O)OCC(=O)N2CCN(C(=O)c3ccco3)CC2)cc1C	5243	3	-2	6
14	O=C(NCCCN1CCOCC1)c1ccc(S(=O)(=O)Nc2ccccc2F)cc1	/	5	-5	-8
15	CN(c1ccccc1)S(=O)(=O)c1cccc(NC(=O)c2nn(C)c(=O)c3ccccc23)c1	?	-10	/	-20
16	O=C(COC(=O)CNS(=O)(=O)c1ccc2ccccc2c1)Nc1ccc2c(c1)OCO2	2094	-2	-3	-4
17	O=C(Nc1ccc(NC(=O)c2cccc([N+](=O)[O-])c2)cc1)c1cccc([N+](=O)[O-])c1	/	-14	-10	4
18	O=C(C1CCCCN1S(=O)(=O)c1ccccc1)N1CCN(C(c2ccccc2)c2ccccc2)CC1 (stereo not drawn)	20580*	-9	2	-23
19	O=C(C1CN(C(=O)c2cc3cc(Cl)ccc3o2)c2ccccc2O1)N1CCCCC1 (stereo not drawn)	3776	12	/	-4
20	Nc1nonc1-n1nnc(C(=O)NN=Cc2cccc(Cl)c2)c1CN1CCOCC1	/	-4	/	/
21	CC(Oc1ccc2c(-c3ccccc3)cc(=O)oc2c1)C(=O)N1CCC[C@@H]1C(N)=O (stereo partly drawn)	4469	-1	-2	-21
22	O=C(Nc1cccc(S(=O)(=O)Nc2ccccc2Cl)c1)c1ccc(N2CCCC2)c([N+](=O)[O-])c1	2714	-1	-17	-15
23	COc1cc(C(=O)N[C@@H](C)C(=O)NCc2ccco2)cc(OC)c1OC	5090	17	1	-13
24	Cn1c(SCC(=O)Nc2ccc3cn[nH]c3c2)nnc1-c1cnccn1	2839	-7	-8	-21

item	Mtb hypoxia inh	Mtb hypoxia inh growth	RN4220 kill
13	-6	1	0.7
14	-6	-3	5.4
15	6	1	7.7
16	1	8	5.5
17	3	2	5.4
18	4	5	-4.6
19	4	9	-1.6
20	-3	12	-0.3
21	/	/	0.6
22	5	7	7.4
23	1	7	1.3
24	8	4	1.9

# (listing goes on)
item	SMILES	Autofluor counter	Sa ugtP lethal	BJeLR lethal	PrP 5UTR inh
25	C/C(=N\NC(=O)COc1ccc(C(C)(C)C)cc1)c1ccc(N2CCOCC2)cc1	2491	/	3	-5
26	COc1cccc(CN2CCN(Cc3ccon3)CC2CCO)c1 (stereo not drawn)	2523	3	6	-5
27	COC(=O)c1cccc(Oc2cccc(C(F)(F)F)c2)n1	1893	15	5	-7
28	COc1ccccc1N1CCN(C(=O)C2CCCN(c3ncnc4c3nc3n4CCCCC3)C2)CC1 (stereo not drawn)	4070	2	4	-2
29	O=C(O)c1ccc(O)c(O)c1	5780	-7	-3	-11
30	CCN(CC)c1ccc(C=NN=C(N)N)c(O)c1	/	-3	/	/
31	O=C(NCCc1nc2ccccc2[nH]1)Nc1ccccc1	10693	0	-1	-19
32	CCOc1ccc(CCNC(=O)Cn2cccc2C(=O)c2ccccc2)cc1OCC	2069	6	3	-6
33	CCN1C(c2ccccc2)=C(c2ccccc2)S/C1=C\C=C1/SC(=S)N(C)C1=O	5010	7	14	0
34	CCOc1ccc(NC(=O)COc2ccc(C(=O)NCc3cccc(OC)c3)cc2OC)cc1	3543	3	/	-13
35	CCOC(=O)CSc1nc2ccccc2c(=O)n1CC	3206	3	3	-7
36	CN(C)S(=O)(=O)N1CCC(CCCC2CCN(S(=O)(=O)N(C)C)CC2)CC1	10092	7	-1	-37

item	Mtb hypoxia inh	Mtb hypoxia inh growth	RN4220 kill
25	/	/	/
26	-5	2	3.5
27	10	11	0.4
28	-14	3	0.3
29	/	/	7.4
30	11	3	-1.6
31	7	2	3.4
32	4	1	5.6
33	13	7	0.5
34	14	9	8.9
35	2	-1	5.7
36	16	2	5.8

# Following part
item	SMILES	Autofluor counter	Sa ugtP lethal	BJeLR lethal	PrP 5UTR inh
37	CN(C)S(=O)(=O)N1CCC(Oc2cccc(C(=O)N3CCCCCCC3)c2)CC1	5458	6	10	-8
38	CCN1CCC(N(C)C2CCCCC2)CC1	3628	9	0	-7
39	CCN(CC)C(=O)c1sc(NC(=O)c2ccc3c(c2)OCO3)c(C#N)c1C	4342	-3	5	5
40	COc1ccc(C=NNC(N)=S)cc1OC(=O)c1ccccc1	/	-6	/	/
41	COc1ccc(C(=O)N2CCOCC2)cc1S(=O)(=O)N1CCCc2ccccc21	4528	5	-4	-20
42	CCn1c(SCC(=O)NCc2ccccc2)nc2c(c1=O)SC(C)C2 (stereo not drawn)	5930	7	-3	-22
43	O=C(O)c1ccnc(SCC(=O)c2ccccc2)c1	2162	5	-9	-42
44	COC(=O)C(C)Sc1nc2c(cnn2-c2ccc(F)cc2)c(=O)[nH]1 (stereo not drawn)	3531	-7	1	-8
45	CC1CCN(CC(=O)Nc2ccc(S(=O)(=O)NC3CC3)cc2)CC1	5090	6	2	-6
46	CN(C)S(=O)(=O)c1cccc(NC(=O)COC(=O)C2(c3ccccc3F)CCCC2)c1	2122	7	-10	-4
47	COc1ccc(CC(=O)NC2CCCCCC2)c(OC)c1	3695	-8	-3	-14
48	CC1CCCCC1NC(=O)c1ccc(N2CCCC2=O)cc1 (stereo not drawn)	22649*	9	4	-21

item	Mtb hypoxia inh	Mtb hypoxia inh growth	RN4220 kill
37	7	-2	3.3
38	11	8	2.0
39	-3	-4	0.8
40	/	/	9.2
41	2	15	6.8
42	16	8	1.4
43	3	10	2.5
44	-6	-2	6.1
45	2	7	4.6
46	7	3	-1.5
47	16	8	4.0
48	7	4	5.8

# Reprinted at random: 3 records from the list
item	SMILES	Autofluor counter	Sa ugtP lethal	BJeLR lethal	PrP 5UTR inh
8	S=C(NCc1ccc(Cl)cc1Cl)NC1CCCCC1	2029	32	-2	-14
28	COc1ccccc1N1CCN(C(=O)C2CCCN(c3ncnc4c3nc3n4CCCCC3)C2)CC1 (stereo not drawn)	4070	2	4	-2
29	O=C(O)c1ccc(O)c(O)c1	5780	-7	-3	-11

item	Mtb hypoxia inh	Mtb hypoxia inh growth	RN4220 kill
8	0	1	9.6
28	-14	3	0.3
29	/	/	7.4

# Some values from the results shown:
# Entry of entry 48 under RN4220 kill: 5.8
# Entry of entry 37 under Mtb hypoxia inh growth: -2
# Entry of entry 42 under RN4220 kill: 1.4
# Entry of entry 40 under RN4220 kill: 9.2
# Entry of entry 46 under PrP 5UTR inh: -4

# Additional compounds follow.
item	SMILES	Autofluor counter	Sa ugtP lethal	BJeLR lethal	PrP 5UTR inh
49	O=C(/C=C/c1ccccc1[N+](=O)[O-])NCc1ccncc1	3143	0	-2	-5
50	COc1ccc(OC)c(S(=O)(=O)N2CCNCC2)c1	4230	2	11	-14
51	Cc1ccc(S(=O)(=O)N2CCC(=O)N(C(CO)Cc3ccccc3)CC2)cc1 (stereo not drawn)	2786	1	4	-4
52	COc1ccc(C(=O)c2coc3ccc(OC(C)=O)cc23)cc1	2986	-1	-3	-33
53	CCOC(=O)N1CCN(C(=O)CSc2nnc(-c3c[nH]c4ccccc34)n2CCOC)CC1	10845	7	-8	-3
54	CCc1cccc(C)c1NC(=O)CSc1nc(C)c(C)o1	4562	11	7	-6
55	NC(=O)Cn1nnc(-c2ccc(CN3CCCCC3)cc2)n1	4333	15	5	-10
56	Cc1cc(C(C)(C)C)oc1C(=O)N(CC(=O)NC1CCCC1)Cc1ccccc1	8881	-1	3	7
57	O=C(NCCCN1CCCC1=O)c1cccc(S(=O)(=O)NCc2ccccc2)c1	5042	5	0	-17
58	CN1CCN(NC(=S)NC2CCCCC2)CC1	2561	4	-10	6
59	COC(=O)CCCCNC(=O)Nc1ccccc1	1990	4	1	2
60	CC(c1ccccc1)C1CC(=O)N(c2cc(Cl)ccn2)C1=O (stereo not drawn)	3565	2	-3	-52

item	Mtb hypoxia inh	Mtb hypoxia inh growth	RN4220 kill
49	11	2	6.6
50	12	6	5.5
51	-2	-2	8.3
52	5	4	2.7
53	5	5	5.3
54	10	-6	5.3
55	5	9	7.4
56	0	5	2.1
57	-7	0	1.8
58	6	9	3.2
59	19	-2	3.2
60	0	9	2.3

# Next entries follow:
item	SMILES	Autofluor counter	Sa ugtP lethal	BJeLR lethal	PrP 5UTR inh
61	O=C(NNC(=O)c1cc(-c2ccc(Cl)c(Cl)c2)nc2ccccc12)Nc1ccccc1	2865	/	2	-9
62	COc1ccc(NC(=O)Cc2c(SC)c3ccccc3n2Cc2ccccc2)cc1	2539	1	-16	-16
63	S=C(c1ccc(-c2ccc(Br)cc2)o1)N1CCOCC1	5804	0	2	/
64	CCOC(=O)C(C)Sc1nc2c(c(=O)[nH]c(=O)n2C)n1C/C=C(/C)Cl (stereo not drawn)	2339	5	7	-15
65	COc1ccccc1NC(=O)c1ccc(NS(=O)(=O)c2cccc3cccnc23)cc1	6902	0	3	-9
66	CC1=C(C(=O)OCCOc2ccccc2)C(c2ccc(C)o2)C2=C(CC(C)(C)CC2=O)N1 (stereo not drawn)	2495	6	1	-26
67	COc1cccc(-c2nc(C(=O)NCCCN3CCOCC3)cc3c2[nH]c2ccccc23)c1	4322	9	10	-4
68	Clc1ccc(CSc2ccc(-c3ccccn3)nn2)cc1	4754	3	2	-27
69	Cc1ccc(NS(=O)(=O)c2ccc3c(c2)CCC(=O)N3)cc1	3564&2938	6	/	4
70	Oc1ccccc1CN1CCN(C(O)(c2ccccc2)c2ccccc2)CC1	3876	-3	-12	-60
71	O=C(NCCc1ccc(Cl)cc1)c1cc(-c2ccccn2)nc2ccccc12	5700	-4	-15	-18
72	Cc1ccc(-c2noc(CCC(=O)N3CCN(c4cc(C)ccc4C)CC3)n2)cc1	3572	4	/	-19
73	O=C1c2ccccc2C(=O)N1CSc1nnc(Nc2ccccc2)s1	3564	2	-1	-48
74	O=C(CCS(=O)(=O)c1cccs1)Nc1ccc(C(=O)NCc2ccccc2)cc1	9187	-4	-1	-23

item	Mtb hypoxia inh	Mtb hypoxia inh growth	RN4220 kill
61	/	/	/
62	7	-3	0.3
63	0	-19	-2.9
64	/	/	4.5
65	2	6	1.1
66	1	11	2.6
67	/	/	4.0
68	8	5	7.3
69	6	1	3.2
70	-5	13	1.4
71	8	-1	3.3
72	-14	-9	5.2
73	0	-2	5.0
74	-7	0	-1.1
